TRPML1 agonist = qHTS for Agonists of the Human Mucolipin Transient Receptor Potential 1 (TRPML1). Mucolipin-1 (Homo sapiens), Q9GZU1. TRPML1-expressing cells, Ca2+ dye fluorescence, FDSS; host cell line not named in the record; reference of the full effect not given here. activation, % (concentration not given with the values). 410,000 tested, 0.12% active. AID 624414, 2012; in the data active = activation above about 50%; inconclusive = about 30% to 50%; inactive = below about 30%; also: 0% is about no effect; the text of the record puts the active cut at 80%
Target sequence (Q9GZU1 whole entry, looked up): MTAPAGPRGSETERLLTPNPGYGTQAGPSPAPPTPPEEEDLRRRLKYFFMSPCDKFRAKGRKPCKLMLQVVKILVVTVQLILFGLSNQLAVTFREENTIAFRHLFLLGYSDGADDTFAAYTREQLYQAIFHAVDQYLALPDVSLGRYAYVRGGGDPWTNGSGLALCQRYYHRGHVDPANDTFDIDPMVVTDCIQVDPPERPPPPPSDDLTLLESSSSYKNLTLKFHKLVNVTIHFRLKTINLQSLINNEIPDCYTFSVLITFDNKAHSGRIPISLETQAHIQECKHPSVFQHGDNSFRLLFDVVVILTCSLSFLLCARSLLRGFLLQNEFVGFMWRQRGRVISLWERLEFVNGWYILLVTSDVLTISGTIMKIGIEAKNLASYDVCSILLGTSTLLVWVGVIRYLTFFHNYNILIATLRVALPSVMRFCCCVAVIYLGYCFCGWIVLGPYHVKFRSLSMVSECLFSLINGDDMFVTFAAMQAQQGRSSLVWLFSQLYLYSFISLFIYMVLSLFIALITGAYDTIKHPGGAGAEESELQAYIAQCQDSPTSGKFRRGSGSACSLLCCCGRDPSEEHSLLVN
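Tet-induced TRPML1-DL cells, 1,500 per well, cultured overnight, were loaded with a no-wash Ca2+ dye for 45–90 min. Calcium fluorescence was recorded on the FDSS for 110 s after compound addition, before the EC80 agonist (4 uM 54-4) was added.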
ClpP mod = qHTS Assay for Activators of ClpP | Potency, µM (series often up to 57.5 µM), inactives show at the top dose activity change, negative = active | purified B. subtilis ClpP, FRET peptide cleavage, 20 min | 340,000 tested, 1.9% active; active = well fitted falling curve with a large enough effect; inconclusive = small, poorly fitted or top-dose-only effect; inactive = no such curve, though single readings can be large or run the other way; also: potency is read from the fitted curve at half-maximal effect; the source files actives as falling curves though it sought activators and does not explain the sign; nearly all actives have a fitted effect of over 65% in size; many hits overshoot -100%
Target sequence (P80244 whole entry, looked up): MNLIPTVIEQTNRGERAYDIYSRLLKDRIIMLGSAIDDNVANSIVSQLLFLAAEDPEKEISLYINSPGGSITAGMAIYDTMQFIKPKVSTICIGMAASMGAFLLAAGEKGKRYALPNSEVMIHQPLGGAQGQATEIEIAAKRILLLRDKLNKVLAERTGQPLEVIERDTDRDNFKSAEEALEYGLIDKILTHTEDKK
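Purified B. subtilis ClpP, 10 microg/mL final in Tris/HCl pH8 with KCl, BSA, glycerol and Tween-20, cleaved an Abz/nitrotyrosine-quenched decapeptide. Fluorescence (ex 320, em 430) was read at 0 and 20 min at room temperature. Delta was normalized to 5.8 microM ADEP and DMSO/no-enzyme controls.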
TRPML1 inh = qHTS for Inhibitors of the Human Mucolipin Transient Receptor Potential 1 (TRPML1); 390,000 tested, 0.02% active; activity change, negative = inhibition, % (concentration not given with the values); Mucolipin-1 (Homo sapiens), Q9GZU1; AID 624415, 2012; TRPML1-inducible cells, Ca2+ dye fluorescence, FDSS; active compounds read low; inhibition of EC80 agonist-evoked calcium signal; in the data active means activity change below about -50%; inconclusive means about -30% to -50%; inactive means above about -30%;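 also: stimulus is agonist 54-4 at its EC80 concentration; % is scaled to controls: 0 for no effect and ±100 for the full control effect; the text of the record puts the active cut at -80%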
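TRPML1-DL cells, Tet-induced overnight (~16 h, 37 °C) at 1,500 cells/well, were loaded with Ca8 no-wash dye plus quencher for 45-90 min at room temperature. Compounds were pinned during FDSS kinetic reading; agonist 54-4 at EC80 (4 uM final) then added.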
PINK1 expr mod = A Quantitative High throughput Screen to Identify Chemical Modulators of PINK1 Expression; Potency, µM (titrated, usually from 76.6 µM), for the others: at the top dose activation (PINK1 increase), hits mostly activators; PINK1 immunofluorescence, high-content cytometry, 24 h; AID 624263, 2012; 410,000 tested, 0.2% active; active = well fitted activation curve with a large enough effect; inconclusive = small, poorly fitted or top-dose-only effect; inactive = flat fitted curve, though single readings scatter; cell line not stated here;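 also: potency is read from the fitted curve at half-maximal effect; % of control where 0% means no effect; nearly all actives have a fitted effect of over 65% in size; a mitochondrial uncoupler was the plate control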
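Stable cell line treated 24 h with compounds at 5 concentrations (CCCP controls), then fixed and immunostained for PINK1 plus nuclear and cell stains; PINK1 immunofluorescence quantified by laser-scanning microplate cytometry.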
Menin-MLL FL inh = qHTS Assay for Inhibitors Targeting the Menin-MLL Interaction in MLL Related Leukemias: Competition With Fluorescein Labeled MLL-derived Peptide. Fluorescence polarization, fluorescein-MLL peptide displacement from menin. FP activity change, % at 61.4 µM. 290,000 tested, under 10 active. AID 1766, 2009; inconclusive = falling polarisation curve, or a change in total fluorescence; inactive = total fluorescence flat and polarisation flat or rising; no compound was filed as active; the % refers to the polarisation; negative = inhibition;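 also: % of control where 0% means no effect; inhibitors lower the polarisation; unlabelled MLL peptide was the positive control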
TRPV1 PAM = HTS Assay for Compounds that Act as Potentiators of the Vanilloid Receptor 1; TRPV1-expressing cells, Fluo-8 calcium influx, capsaicin EC20 potentiation; host cell line not named in the record; control for the full effect not named in the record; potentiation, % at 8.33 µM; 320,000 tested, 0.02% active; active means potentiation above 80%; inconclusive means 30% to 80%; inactive means below 30%; also: 0% is about no effect
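Cells expressing TRPV1 were dye-loaded with Fluo-8 and read kinetically: 10 s baseline, 3 min after compound (agonist portion), then 2 min after EC20 capsaicin (allosteric enhancer portion). Calcium-bound dye fluorescence at 480/520 nm.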
Sfp inh = qHTS Assay for Inhibitors of Bacillus subtilis Sfp phosphopantetheinyl transferase (PPTase); 4'-phosphopantetheinyl transferase ffp (Bacillus subtilis), Q9F4F7; 310,000 tested, 3.5% active; Potency, µM, without a hit: max response, negative = inhibition, most hits filed as inhibitors; Biochemical Sfp PPTase activity, qHTS; active = well fitted inhibition curve with a large enough effect; inconclusive = small, poorly fitted or top-dose-only effect, or another doubt; inactive = no such curve, though single readings can be large or run the other way;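 also: the enzyme is Sfp with the accession as filed and its product quenches rhodamine fluorescence; potency is read from the fitted curve at half-maximal effect; 0% = enzyme reaction without inhibitor and -100% = no enzyme wells; top concentration of the series not given in the record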
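Fluorescence-quenching assay with 15 nM Sfp, 5 uM rhodamine-CoA and 12.5 uM BHQ-2-labelled ybbR peptide in pH 7.6 Hepes/MgCl2 buffer. Enzyme was pre-incubated with compound for 15 min at room temperature. Rate was taken from the 30-min fluorescence change (525/598 nm).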
Numbers without * were called inactive; u = inconclusive; x = no result given; & = joins results of further samples; [ ] = another dose, or the depositor's remark.

SMILES	TRPML1 agonist	ClpP mod	TRPML1 inh	PINK1 expr mod	Menin-MLL FL inh	TRPV1 PAM	Sfp inh
O=C1CC(C(=O)N2CCC(N3CCC(C(=O)NC4CC4)CC3)CC2)c2ccccc21 (stereo not drawn)	0.7	-7.9%	-7	0.3%	u	7	-12%
CCC1(c2ccccc2)NC(=O)N(C)C1=O (stereo not drawn)	-0.4	-1.2%	-14	1.5%	-4.3	-2	6%
CCCCNC(=O)c1ccccc1NC(=O)CN(c1ccccc1)S(=O)(=O)N(C)C	-0.1&2.6	-9.8%&-2.6%	28&0	0.3%&0.0%	0.7	-1	-2%
OC(CNc1nc(-c2cccnc2)nc2ccccc12)c1ccccc1 (stereo not drawn)	0.6	x	52	-1.8%	20	-15	10%
CCc1nn(C(C)C(=O)N2CC(C)CC(C)C2)c(=O)c2cc3occc3n12 (stereo not drawn)	-0.8	-6.3%	9	-0.3%	x	-28	15%
O=c1[nH][nH]c2c1[C@H](CCc1cccc(Cl)c1)O[C@H](C1CCCC1)C2	-0.1	3.4%	x	3.5%	x	x	x
COc1cccc(OC)c1-c1nnc(-c2cn(C)c3ccccc23)o1	0.1	11µM*	-11	12%	1.7	-3	19%
CN(CC(=O)Nc1cccc(Cl)c1)C1=NS(=O)(=O)c2ccccc21	-0.3	2.0%	-4	-0.5%	x	x	x
CC(NC(=O)CNC(=O)C1CCCCC1)c1ccc(S(N)(=O)=O)cc1 (stereo not drawn)	0.3	x	7	-0.5%	-0.7	-4	14%
CCN(CC)S(=O)(=O)c1cccc(C(=O)NC2CCCCC2)c1	0.0	-1.6%	-5	-1.5%[38.3 µM]	1.1	7	22%
COc1ccc(OC)c2[nH]c(=O)c(CCNC(=O)c3ccc(S(=O)(=O)N4CCCCC4)cc3)cc12	-2.0	0.2%	-9	2.6%	-4.7	1	1%
O=C(NCc1cccs1)c1ccc2c(c1)ncn2C1CCCC1	-0.1	-0.1%	8	0.3%[38.3 µM]	-0.5	16	-9%
COc1ccc2[nH]c(C(=O)N3CCN(c4ccccc4F)CC3)c(C)c2c1	4.7	-18%	21	2.1%	-1.8	23	3%
C=CCn1c(SCC(=O)Nc2cccnc2Cl)nnc1-c1ccc(Cl)cc1	1.4	-1.9%	2	-1.7%	-1.7	15	-9%
Cc1cccc(NC(=S)N2CCN(S(C)(=O)=O)CC2)c1	-0.1	0.0%	1	1.9%	-2.3	-5	-5%
COc1ccc(CCNC(=O)c2n[nH]c(=O)c3ccccc23)cc1	0.3	2.7%	11	8.4%	-0.5	26	5%
COc1cc(NS(=O)(=O)c2c(C)oc3c(F)c(F)c(F)c(F)c23)cc(OC)c1OC	-0.1	1.2%	-2	0.1%	x	0	8%
NS(=O)(=O)c1cccc(NC(=O)COC(=O)Cc2n[nH]c(=O)c3ccccc23)c1	-0.4	-2.9%	41	1.7%	x	0	x
CC(=O)Oc1ccc(C(=O)OCC(=O)c2c(N)n(C)c(=O)n(C)c2=O)cc1OC(C)=O	0.4	x	-5	3.0%	0.3	6	18%
COC(=O)[C@@]1(Sc2ccc(C)cc2)CC(=O)N(C(=O)C2CC2)[C@@H]1c1ccccc1	0.1	0.0%	x	-0.6%	x	x	x
CN(CC(=O)N1CCN(c2ccccn2)CC1)S(=O)(=O)c1ccccc1	-0.2	32µM*	28	0.1%	-1.1	3	4%
CCOc1ncccc1C(=O)Nc1ccc(C)cn1	2.1	-0.6%	9	1.7%	x	7	6%
O=C(CN1C(=O)C2CCCCN2C(=O)c2ccccc21)Nc1ccc(F)cc1 (stereo not drawn)	0.8	-1.2%	-2	-0.1%	0.6	2	23%
CN(C)C(=O)CSc1ccc(S(=O)(=O)N2CCCC2)cn1	1.4	-1.9%	15	-1.0%	x	2	x
CC(=O)Nc1ccc(C(=O)OCC(=O)NC(=O)NC(C)(C)C)cc1	0.0	-3.1%	-9	0.5%	-0.4	7	16%
CC1=C/C(=N\Nc2ccccc2[N+](=O)[O-])CC(C)(C)C1	0.4	x	43	5.1%	9.3	10	-8%
Cc1cc(Nc2cccc(C(F)(F)F)c2)nc2ccc(NC(=O)c3ccc(N(C)C)cc3)cc12	1.9	4.7%	-17	1.9%	x	x	x
Cc1ccc(COc2ccc(-c3nnco3)cc2)cc1	0.8	1.1%	35	0.1%	4.8	-1	5%
CCOC(=O)c1ccc(NC(=S)N2CCC(C(N)=O)(N3CCCCC3)CC2)cc1	-0.4	x	13	1.3%	1.8	-5	2%
Cc1cc(C(=O)C[N+]2(C)CCOCC2)c(C)n1-c1ccc(Br)cc1	0.6	x	17	1.4%	3.0	-3	13%
COC(=O)CNC(c1ccccc1)c1cc(C)ccc1NS(=O)(=O)c1ccc(C)cc1 (stereo not drawn)	-0.4	0.0%	4	0.1%	3.0	26	11%
CNC(=O)C1C(=S)NC(N)=C(C#N)C1c1ccccc1 (stereo not drawn)	-0.5	-0.7%	2	5.9%[38.3 µM]	-1.6	6	4µM*
CCN(CC(=O)Nc1c(F)cccc1F)C(=O)c1ccc(=O)n(C)n1	-0.2	-15%	4	-5.4%	x	x	x
COc1ccc2c(c1)Cc1sc(NC(=O)c3cccc(F)c3)nc1-2	0.5	-6.1%	-6	1.0%	x	x	x
Cc1cc2c(=O)oc(-c3ccc(F)cc3)nc2s1	0.6	-1.6%	7	1.2%	3.9	2	14%
CSc1nc(S(=O)(=O)c2ccc(C)cc2)c(Cl)s1	1.4	1.9%	-25	-0.1%	-0.8	-1	7%
Cc1cc(N2CCOCC2)nc2ccc(NC(=O)CCC(=O)N3CCN(c4cccc(C(F)(F)F)c4)CC3)cc12	4.5	x	35	0.1%	-1.7	u	13%
Cc1noc(C)c1CSCC(=O)OCC(=O)N1CC(=O)Nc2ccccc21	-0.2	0.4%	22	-0.5%	-8.2	-6	15%
O=C(CN(C(=O)c1csnn1)c1cccc(F)c1)NC1CCCC1	0.0	x	4	0.8%	-5.2	16	-11%
CC(=O)Nc1cc(-c2cccc(C(=O)NCCN(C)C)c2)cn2c(-c3ccc(C(C)=O)cc3)cnc12	-0.3	-7.7%	x	-1.3%	x	x	x
Cc1ccc2c(c1)NC(=O)C(CC(=O)NCc1ccc(F)cc1)O2 (stereo not drawn)	1.6	-3.7%	0	3.5%	-0.3	0	-11%
CC(C)Cn1cc(C(=O)NCc2cccs2)c2c3ccccc3n(C)c2c1=O	2.1	10µM*	17	-3.3%[38.3 µM]	0.5	4	-7%
c1ccc(-n2nnnc2-n2nnc3ccccc32)cc1	0.5	-1.6%	13	-1.0%	3.4	1	18%
CC(C)C[C@H]1CNC(=S)N1C[C@H]1CCCN1C[C@H](Cc1ccc(O)cc1)N1C[C@H](Cc2ccccc2)N(CC2CCCCC2)C1=S	1.8	-5.3%	16	1.4%	x	x	x
Cc1ccc(Cl)cc1N1CCN(S(=O)(=O)c2ccc3c(c2)CCCN3C(=O)C2CCC2)CC1	-1.0	1.3%	-15	-1.5%	x	x	x
Cc1ccc(S(=O)(=O)c2nc(Nc3ccccc3)sc2Cl)cc1	3.7	1.5%	-10	u	0.9	0	15%
Cc1noc(C)c1-c1nc(CS(=O)(=O)c2ccc(F)cc2)no1	-0.8	0.1%	32	0.1%	5.0	4	14%
CC(C)(C)C(=O)/C(C#N)=C/c1cccs1	1.0	-1.5%	-18	3.1%	0.8	2	8%
Cc1cc(C)cc(OCC(=O)Nc2nonc2-c2ccc(Br)cc2)c1	1.8	1.3%	-26	-0.1%	x	x	x
CCCCn1c(=O)n(-c2cc(OC)ccc2OC)c(=O)c2c3c(sc21)CN(C(C)=O)CC3	-0.7	-0.9%	6	2.6%	x	x	x
COc1ccc(OC)c(C(=O)NC(CC(N)=O)c2ccc(N3CCC(N4CCCC4)CC3)c([N+](=O)[O-])c2)c1 (stereo not drawn)	0.1	-14%	-18	0.0%	2.4	17	u
COc1ccc(/C=N/NC(=O)c2ccc(C)cc2)cc1CN1CCN(c2ccc(F)cc2)CC1	-0.1	-0.7%	-20	0.8%	-0.1	8	17%
CC(C)CCN(C(=O)c1ccccn1)c1c(N)n(Cc2ccccc2)c(=O)[nH]c1=O	-0.2	x	1	-1.2%	x	x	x
O=c1oc2ccc3ccccc3c2cc1-c1nnc(Nc2cc(C(F)(F)F)ccc2Cl)s1	-0.5	0.6%	0	11%	x	x	x
CC(=O)Nc1ccc(-c2csc(N/N=C\c3ccncc3)n2)cc1	-0.6	-17%	0	-0.6%	4.5	-15	20µM*
O=C(OC1CCOC1=O)c1ccc(Cl)c(S(=O)(=O)N2CCOCC2)c1 (stereo not drawn)	0.0	1.2%	4	1.1%	x	-4	x

Record cards (already shown):
`O=C(CN(C(=O)c1csnn1)c1cccc(F)c1)NC1CCCC1` is listed with TRPML1 agonist = 0.0; ClpP mod = x; TRPML1 inh = 4; PINK1 expr mod = 0.8%; Menin-MLL FL inh = -5.2; TRPV1 PAM = 16; Sfp inh = -11%
`O=C1CC(C(=O)N2CCC(N3CCC(C(=O)NC4CC4)CC3)CC2)c2ccccc21` (stereo not drawn) is listed with TRPML1 agonist = 0.7; ClpP mod = -7.9%; TRPML1 inh = -7; PINK1 expr mod = 0.3%; Menin-MLL FL inh = u; TRPV1 PAM = 7; Sfp inh = -12%

Source: PubChem BioAssay

Rows were taken by chance; 4.4% or so of the library scored in one or more.
